Screening results: PubChem BioAssay, National Center for Advancing Translational Sciences (NCATS)
VDR inhibitor = vitamin D3 receptor (human) inhibition | P11473 | VDR-SRC2-3 peptide fluorescence polarization, 2 h | Potency, µM, for inactives: max response, negative = inhibition, actives largely listed as inhibitors | 400,000 compounds, 0.93% hits; active means well fitted inhibition curve with a large enough effect; inconclusive means small, poorly fitted or top-dose-only effect, or another doubt; inactive means no such curve, though single readings can be large or run the other way; further: series mostly up to about 120 µM
Target sequence (P11473 whole entry, looked up): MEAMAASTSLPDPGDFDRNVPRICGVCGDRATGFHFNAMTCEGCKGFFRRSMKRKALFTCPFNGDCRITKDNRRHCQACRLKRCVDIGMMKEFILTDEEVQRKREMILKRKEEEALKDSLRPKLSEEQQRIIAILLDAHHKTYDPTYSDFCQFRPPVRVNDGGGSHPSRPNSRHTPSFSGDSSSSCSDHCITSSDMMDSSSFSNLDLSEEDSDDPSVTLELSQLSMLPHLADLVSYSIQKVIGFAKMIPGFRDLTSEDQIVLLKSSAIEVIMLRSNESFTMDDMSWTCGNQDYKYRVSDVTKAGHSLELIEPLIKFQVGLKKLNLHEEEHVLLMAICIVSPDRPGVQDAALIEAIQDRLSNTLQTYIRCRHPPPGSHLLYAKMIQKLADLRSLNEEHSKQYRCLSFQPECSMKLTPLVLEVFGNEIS
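The screen uses fluorescence polarization to detect compounds that interfere with recruitment of the SRC2-3 coactivator peptide to VDR; plates are read after 2 h at room temperature.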
Numbers without * were called inactive; & = joins results of further samples. On the % scale 0 is the no-effect control and ±100 the full control effect; potency means the concentration at half of the fitted maximal effect. This is a subset; rates above refer to the full screens.

The opening 3 compounds, ahead of the listing:
What do the screens show for `Cc1ccc(C2(O)CN3CCC2CC3)cc1` (configuration not stated)?
VDR inhibitor: 6%

How did CC(C)(C)[C@]1(O)C[C@@H]2OC(=O)CC23C(=O)O[C@@H]2OC(=O)[C@H](O)C231 (some centres not stated) do in these assays?
VDR inhibitor: 9%

What do the screens show for `COc1cc(CNCCc2ccc3c(c2)OCO3)cc(OC)c1OC`?
VDR inhibitor: -25%

The list itself, repeating the preview:
What do the screens show for `Cc1ccc(C2(O)CN3CCC2CC3)cc1` (configuration not stated)?
VDR inhibitor: 6%

How did CC(C)(C)[C@]1(O)C[C@@H]2OC(=O)CC23C(=O)O[C@@H]2OC(=O)[C@H](O)C231 (some centres not stated) do in these assays?
VDR inhibitor: 9%

What do the screens show for `COc1cc(CNCCc2ccc3c(c2)OCO3)cc(OC)c1OC`?
VDR inhibitor: -25%

What do the screens show for `C/C(=C\C=C/[C@@H](C)C(=O)O)[C@H]1CN[C@H](C(=O)O)[C@@H]1CC(=O)O`?
VDR inhibitor: -9%

Results for CCCOP(=O)(OCCC)C(NC(=O)c1cc(OC)c(OC)c(OC)c1)c1ccccc1 (configuration not stated) ?
VDR inhibitor: -16%

Results for COCCNC(=O)Cn1cc(/C=C2\C(=O)NC(=O)N(c3cccc(C)c3C)C2=O)c2ccccc21 ?
VDR inhibitor: inconclusive

What do the screens show for `Cc1[nH]c2ccc(Cl)cc2c1C1=CCNCC1`?
VDR inhibitor: 0%

How did CCN(CC)c1ccc(/C=C2/C(=O)NC(=O)N(Cc3ccco3)C2=O)cc1 do in these assays?
VDR inhibitor: inconclusive

Results for O=C1/C(=C/c2ccc([N+](=O)[O-])cc2)N2CCC1CC2 ?
VDR inhibitor: -13%

Results for CC(C)(C)c1cc(OC(=O)Cc2ccccc2)ccc1O ?
VDR inhibitor: -22%

What do the screens show for `CCOC(=O)C(O)(c1ccc(NC(=S)NC(=O)c2ccc(Cl)cc2Cl)cc1)C(F)(F)F` (configuration not stated)?
VDR inhibitor: 9%

What do the screens show for `O=C(Oc1ccccc1)N1CCC[C@@]2(CCN(Cc3ccccc3)C2)C1`?
VDR inhibitor: -12%

What do the screens show for `C=CCn1c(O)c(C(CC)=NCc2ccc3c(c2)OCO3)c(=O)[nH]c1=O`?
VDR inhibitor: -12%

What do the screens show for `CCOc1cc2c(cc1OCC)-n1cccc1C(c1ccc(OC)cc1)NC2` (configuration not stated)?
VDR inhibitor: 4%

How did Cc1ccc(-c2cc(C(=O)N3CCC4(CC3)OCCO4)no2)cc1 do in these assays?
VDR inhibitor: -6%

What do the screens show for `Fc1ccc(C(OCCN2CCN(CCCc3ccccc3)CC2)c2ccc(F)cc2)cc1`?
VDR inhibitor: -9%&-20%&2%&7%

What do the screens show for `CC1(C)CC(=O)c2cc(OCC(=O)N3CCN(Cc4ccccc4)CC3)ccc2O1`?
VDR inhibitor: 5%

What do the screens show for `COC(=O)C1=C(c2ccc(OC)c(OC)c2)C[C@@H]2CC[C@H]1N2C(=O)N1CCCC1`?
VDR inhibitor: 6%

Results for CCN(CC)S(=O)(=O)c1ccc(N=Cc2c(O)n(-c3ccccc3)c(=O)[nH]c2=O)cc1 ?
VDR inhibitor: -13%

How did COc1ccc(OCC(=O)N2CCN(Cc3cc(=O)n4nc(-c5ccc(OC)cc5)sc4n3)CC2)cc1 do in these assays?
VDR inhibitor: -10%

Results for Cc1c(C(=O)O)cccc1-n1c(C)cc(/C=C2\C(=O)NC(=O)N(c3ccc4c(c3)OCO4)C2=O)c1C ?
VDR inhibitor: 7%

What do the screens show for `CC1(C)Cc2c(C#N)c(N3CCNCC3)nc(-c3ccco3)c2CS1`?
VDR inhibitor: 9%

Results for Cc1cc(=O)oc2c(C)c(OCC(=O)N3C[C@H]4C[C@@H](C3)c3cccc(=O)n3C4)ccc12 ?
VDR inhibitor: 6%

How did O=C(Cc1ccccc1)N1CCN(Cc2ccc([N+](=O)[O-])cc2)CC1 do in these assays?
VDR inhibitor: -2%

Results for CSc1ccc(C(=O)C2CCCN(Cc3ccn[nH]3)C2)cc1 (configuration not stated) ?
VDR inhibitor: 0%

What do the screens show for `O=C(c1ccco1)N1CCC[C@@]2(CCN(Cc3ccncc3)C2)C1`?
VDR inhibitor: -17%

What do the screens show for `NP(=O)(Oc1ccccc1)c1ccccc1` (configuration not stated)?
VDR inhibitor: -1%

Results for COC(C(=O)C(O)C(C)O)C1Cc2cc3cc(OC4CC(OC5CC(O)C(OC)C(C)O5)C(OC(C)=O)C(C)O4)c(C)c(O)c3c(O)c2C(=O)C1OC1CC(OC2CC(OC3CC(C)(O)C(OC(C)=O)C(C)O3)C(O)C(C)O2)C(O)C(C)O1 (configuration not stated) ?
VDR inhibitor: inconclusive

Results for COC(=O)C1=C(c2cccc(C#N)c2)C[C@@H]2CC[C@H]1N2C(=O)N1CCOCC1 ?
VDR inhibitor: 1%

Results for CCCCC/C=C\C/C=C\CCCCCCCCCC(=O)NCCO ?
VDR inhibitor: -13%

Results for Cc1ccccc1N1C(=O)NC(=O)/C(=C\c2cc(C)n(C)c2C)C1=O ?
VDR inhibitor: 13%

What do the screens show for `COCC#CCN1CCCCC1c1cccnc1` (configuration not stated)?
VDR inhibitor: -8%

What do the screens show for `C[C@@H]1O[C@@H](O[C@H]2CC[C@]3(C=O)C4CC[C@]5(C)[C@@H](C6=CC(=O)OC6)CC[C@]5(O)[C@@H]4CC[C@]3(O)C2)[C@H](O)[C@H](O)[C@H]1O` (some centres not stated)?
VDR inhibitor: -1%

How did CCN1C[C@]2(COC)CC[C@H](O)[C@]34C1[C@](O)([C@@H](OC)[C@H]23)[C@@]1(O)C[C@H](OC)[C@H]2C[C@@H]4[C@@H]1[C@H]2OC do in these assays?
VDR inhibitor: -10%

What do the screens show for `CCN(CC)CCN=Cc1c(O)n(Cc2ccco2)c(=O)[nH]c1=O`?
VDR inhibitor: 2%

Results for COc1cc([C@@H]2c3cc4c(c(O)c3C[C@H]3COC(=O)[C@@H]32)OCO4)cc(OC)c1OC ?
VDR inhibitor: 1%

How did CCOc1cc2c(cc1OCC)-n1cccc1C(c1ccc(F)cc1)NC2 (configuration not stated) do in these assays?
VDR inhibitor: 1%

How did Oc1ccccc1/C=N/NP(=S)(c1ccccc1)c1ccccc1 do in these assays?
VDR inhibitor: -7%

What do the screens show for `CCOc1ccc(N2C(=O)NC(=O)/C(=C\c3ccc(N4CCOCC4)cc3C)C2=O)cc1`?
VDR inhibitor: inconclusive

Results for Brc1c(NC2=NCCN2)ccc2nccnc12 ?
VDR inhibitor: 45µM*

What do the screens show for `Cc1cc(OC(C)C(=O)NCC(O)c2ccccc2)c2c3c(c(=O)oc2c1)CCCC3` (configuration not stated)?
VDR inhibitor: 1%

Results for COC(=O)C1=C(c2cc3ccccc3s2)C[C@@H]2CC[C@H]1N2C(=O)NCc1ccccc1 ?
VDR inhibitor: -16%

What do the screens show for `Cc1cccc(-n2c(/C=C/c3cccc4ccccc34)nc3ccccc3c2=O)c1`?
VDR inhibitor: 20%

How did CCOC(=S)SSC(=S)OCC do in these assays?
VDR inhibitor: 50µM*

How did c1ccc(CCN2CCC3(CC2)OCCO3)cc1 do in these assays?
VDR inhibitor: 5%

Results for O=C1NC(=O)C(=Cc2ccc(SC3CCCCC3)o2)C(=O)N1 ?
VDR inhibitor: inconclusive

How did O=c1[nH]c(=S)n(Cc2ccc(F)cc2)c(O)c1/C=N/N1CCCCCC1 do in these assays?
VDR inhibitor: -8%

How did Cn1c(O)c(C=NC2CC3CCC2(C)C3(C)C)c(=O)[nH]c1=O (configuration not stated) do in these assays?
VDR inhibitor: 5%

Results for O=C(c1ccc2c(c1)ncn2C1CCCCCC1)N1CCC2(CC1)OCCO2 ?
VDR inhibitor: 16%

What do the screens show for `O=C(c1ccccc1)c1ccc(N=Nc2c(O)[nH]c(=O)[nH]c2=O)cc1`?
VDR inhibitor: -4%

What do the screens show for `CC(C)(C)NC(=O)Cn1cc(C(=O)c2ccccc2F)c2ccccc21`?
VDR inhibitor: -2%

How did CC[C@H](Oc1ccc(Cl)cc1)C(=O)OC1C[C@H]2CC[C@@H](C1)N2C (some centres not stated) do in these assays?
VDR inhibitor: -2%

Results for CCN(CC)P(=O)(NC(=O)c1cccn1C)N(CC)CC ?
VDR inhibitor: -2%

What do the screens show for `CCCC12CN3CCN(CC(C3)/C1=N\NC(=O)c1ccncc1)C2`?
VDR inhibitor: 18%

How did COc1ccc(CC2C(=O)NC(=O)NC2=O)c(OC)c1 do in these assays?
VDR inhibitor: 7%

How did COc1ccc(CN2C(=O)NC(=O)/C(=C/c3ccc(OC)c(OC)c3OC)C2=O)cc1 do in these assays?
VDR inhibitor: inconclusive

How did CCN(C(=O)COC(=O)Cc1ccccc1)c1c(N)n(Cc2ccccc2)c(=O)[nH]c1=O do in these assays?
VDR inhibitor: 7%

Results for CCOc1ccccc1N1C(=O)CC(=O)NC1=O ?
VDR inhibitor: inconclusive

Results for CC/C(=N\Nc1cccc2ccccc12)c1c(O)[nH]c(=O)[nH]c1=O ?
VDR inhibitor: -7%

How did O=c1c2ccccc2nc(/C=C/c2ccc(O)cc2)n1-c1ccccc1O do in these assays?
VDR inhibitor: 16%

An excerpt from above in order of formula weight, rising:
Results for CCN(CC)P(=O)(NC(=O)c1cccn1C)N(CC)CC ?
VDR inhibitor: -2%

Results for CC/C(=N\Nc1cccc2ccccc12)c1c(O)[nH]c(=O)[nH]c1=O ?
VDR inhibitor: -7%

How did CC[C@H](Oc1ccc(Cl)cc1)C(=O)OC1C[C@H]2CC[C@@H](C1)N2C (some centres not stated) do in these assays?
VDR inhibitor: -2%

How did COc1ccc(CN2C(=O)NC(=O)/C(=C/c3ccc(OC)c(OC)c3OC)C2=O)cc1 do in these assays?
VDR inhibitor: inconclusive

(next part)
How did O=c1cccc2n1CC1CNCC2C1 (configuration not stated) do in these assays?
VDR inhibitor: 0%

What do the screens show for `COc1c2c(cc3c1OCO3)C13C=CC(OC)CC1N(C2)CC3O` (configuration not stated)?
VDR inhibitor: 7%

Results for CC(C)(C)c1ccc(C(=O)C2CCCN(Cc3ccon3)C2)cc1 (configuration not stated) ?
VDR inhibitor: 2%

Results for C/C=C/c1ccc2c(c1)OCO2 ?
VDR inhibitor: 4%&-7%&9%

What do the screens show for `COc1cc(OC)c2c(c1)O[C@@H](c1ccc(OC)c(OC)c1)[C@H](O)C2`?
VDR inhibitor: 1%

How did C[C@@H]1O[C@H](C[N+](C)(C)C)CS1 do in these assays?
VDR inhibitor: 6%

How did CCc1nccc2c1[nH]c1ccccc12 do in these assays?
VDR inhibitor: inconclusive

How did O=C(CNC(=O)c1ccccc1)NCC(=O)OCC(=O)c1ccc([N+](=O)[O-])cc1 do in these assays?
VDR inhibitor: inconclusive

Results for Cn1nccc1C(=O)N1CCC2(CC1)OCCO2 ?
VDR inhibitor: -3%

What do the screens show for `CCSC(=O)N1CCCCCC1`?
VDR inhibitor: 1%

Results for CCn1c(NN=O)nc2ccccc21 ?
VDR inhibitor: -10%

Results for COc1ccccc1NC(=O)N1C[C@@H]2C[C@@H](C1)c1cccc(=O)n1C2 ?
VDR inhibitor: -18%

Results for O=C1N[C@@H](Cc2ccccc2)C(=O)N2[C@H]1C[C@H]1c3ccccc3N(OOSc3ccccc3)[C@H]12 ?
VDR inhibitor: 1%

How did Cn1cc(C(=O)C(=O)N[C@H]2CN3CCC2CC3)c2ccccc21 do in these assays?
VDR inhibitor: 1%&5%

What do the screens show for `COC(=O)C1=C(c2cc3ccccc3s2)C[C@@H]2CC[C@H]1N2C(=O)NCc1ccco1`?
VDR inhibitor: -13%

How did COC(=O)[C@]1(C)CC[C@@]2(C)CC[C@@]3(C)C4=CC=C5C(=CC(=O)C(O)=C5C)[C@@]4(C)CC[C@@]3(C)C2C1 (some centres not stated) do in these assays?
VDR inhibitor: 3.2µM*

What do the screens show for `CC1(C)C2CC=C(CN3CCC(O)CC3)C1C2` (configuration not stated)?
VDR inhibitor: 8%

Results for CC(=O)N[C@@H]1CC[C@@]2(O)[C@H]3Cc4ccc(O)c5c4[C@@]2(CCN3CC2CC2)[C@@H]1O5 ?
VDR inhibitor: 2%

What do the screens show for `COc1ccc(-c2nn(CCC#N)cc2C(=O)Nc2ccccc2Br)cc1[N+](=O)[O-]`?
VDR inhibitor: 1%

What do the screens show for `Oc1cc(Cl)c(Cl)c(Cl)c1`?
VDR inhibitor: -11%

How did CCOc1ccc(C(C)=O)cc1Cn1ccsc1=N do in these assays?
VDR inhibitor: 0%

Results for Cc1cccc(-n2c(/C=C/c3ccccc3O)nc3ccccc3c2=O)c1 ?
VDR inhibitor: -25%

What do the screens show for `Cc1nc2sccc2c(=O)n1-c1ccccc1Cl`?
VDR inhibitor: 1%

Results for CC(=O)OC1=CC[C@H]2[C@@H]3CC[C@H]4C[C@H](OC(C)=O)[C@@H](OC(C)=O)C[C@]4(C)[C@H]3CC[C@]12C ?
VDR inhibitor: 11%

What do the screens show for `c1ccc2c(c1)CNCc1cnnn1-2`?
VDR inhibitor: -16%

How did O=C(N/N=C/c1ccc([N+](=O)[O-])o1)c1cc([N+](=O)[O-])cc([N+](=O)[O-])c1O do in these assays?
VDR inhibitor: inconclusive

How did COc1ccc(C(O)(c2ccccc2)c2ccncc2)cc1 (configuration not stated) do in these assays?
VDR inhibitor: -18%

How did Cc1cccc(-n2c(C)nc3cc(C(=O)N4CCC5(CC4)OCCO5)ccc32)c1 do in these assays?
VDR inhibitor: 9%

Results for COc1ccc(C=C2C(=O)N(C)C(=O)N(C)C2=O)cc1CSc1ccccn1 ?
VDR inhibitor: 79µM*

What do the screens show for `CC(CO)NC(=O)C1C=C2c3cccc4[nH]cc(c34)C[C@H]2N(C)C1` (some centres not stated)?
VDR inhibitor: -13%

How did O=c1cc(CN2CCNCC2)nc2sccn12 do in these assays?
VDR inhibitor: 4%

What do the screens show for `CCN1CCN(Cc2cccnc2)CC1`?
VDR inhibitor: -15%

What do the screens show for `O=C(c1c[nH]c2ccc(S(=O)(=O)N3CCC4(CC3)OCCO4)cc2c1=O)N1CCC2(CC1)OCCO2`?
VDR inhibitor: 10%
